Six1-Eya2 inh: qHTS Assay for Inhibitors of the Six1/Eya2 Interaction. actives 0.56% (n = 360,000). AID 651725, 2012. activity change, % (concentration not given with the values). AlphaScreen GST-Six1/His-Eya2 binding, biochemical; active compounds read low; control for the full effect not named in the record; in the data active = activity change below about -65%; inconclusive = about -30% to -65%; inactive = above about -30%; further: on the % scale 0 is the no-effect control and ±100 the full control effect
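GST-Six1 + His-Eya2 (5X stock: 250/500 nM); Tris pH 8.0, 300 mM NaCl, 0.05% BSA, 0.02% Tween 20; GSH donor/Ni acceptor beads; 1 h 37 °C dark; AlphaScreen readout.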
D2 potentiator: Beta-Arrestin HTS for Positive Allosteric Modulators of the Human D2 Dopamine Receptor: Potentiators; D(2) dopamine receptor (Homo sapiens), P14416; DiscoveRx D2 beta-arrestin cells, luminescence, 90 min; 100% = 57 uM dopamine signal; potentiation, % (no concentration beside the values); actives 0.23% (n = 360,000); active = potentiation of 50% or more; inconclusive = 30% to 50%; inactive = 30% or less;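 further: compound concentration not given in the record; tested on top of an EC20 dose of dopamine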
Target sequence (P14416 whole entry, looked up): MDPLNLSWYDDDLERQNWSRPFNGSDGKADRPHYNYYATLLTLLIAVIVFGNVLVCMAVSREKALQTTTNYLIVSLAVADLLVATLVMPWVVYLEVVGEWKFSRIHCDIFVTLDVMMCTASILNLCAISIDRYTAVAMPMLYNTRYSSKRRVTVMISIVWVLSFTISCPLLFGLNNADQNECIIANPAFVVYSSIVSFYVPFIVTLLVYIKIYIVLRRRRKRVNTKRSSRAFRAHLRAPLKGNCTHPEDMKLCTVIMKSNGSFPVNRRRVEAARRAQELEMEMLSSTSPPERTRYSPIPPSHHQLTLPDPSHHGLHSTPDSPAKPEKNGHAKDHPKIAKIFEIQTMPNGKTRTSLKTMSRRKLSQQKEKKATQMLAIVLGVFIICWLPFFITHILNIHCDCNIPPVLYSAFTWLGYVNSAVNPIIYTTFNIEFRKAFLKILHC
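D2 cells co-treated with compound plus 50 nM dopamine (EC20) for 90 min at 37 deg C to detect potentiation. Beta-arrestin recruitment was read as enzyme-fragment luminescence after 1 h at ambient temperature. Full response was set by 57 uM dopamine.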
D2 ag: Beta-Arrestin HTS for Positive Allosteric Modulators of the Human D2 Dopamine Receptor: Agonists; actives 0.084% (n = 360,000); DiscoveRx PathHunter D2 beta-arrestin, luminescence, 90 min; 100% = 57 uM dopamine signal; activation, % (test concentration not listed); AID 624465, 2012; in the data active = activation above about 40%; inconclusive = about 15% to 40%; inactive = below about 15%; further: compound concentration not given in the record; the text of the record calls up to 30% inactive
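DiscoveRx PathHunter D2 beta-arrestin cells (2,100/well) attached overnight, then compound-stimulated 90 min at 37 C in HBSS/10 mM HEPES/0.1% Tween-20 buffer; beta-galactosidase complementation read by luminescence after 1 h at ambient temperature. Dopamine 57 uM final (EC100) as control.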
PINK1 expr mod: A Quantitative High throughput Screen to Identify Chemical Modulators of PINK1 Expression. PINK1 immunofluorescence, high-content cytometry, 24 h. Potency, µM (top dose mostly 76.6 µM), for the others: at the top dose activation (PINK1 increase), usual class: activators. actives 0.2% (n = 410,000). AID 624263, 2012; active = well fitted activation curve with a large enough effect; inconclusive = small, poorly fitted or top-dose-only effect; inactive = flat fitted curve, though single readings scatter; cell line not stated here;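 further: potency means the concentration at half of the fitted maximal effect; % of control where 0% means no effect; nearly all actives have a fitted effect of over 65% in size; a mitochondrial uncoupler was the plate control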
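Stable cell line, 250 cells/well, 12 h attachment; compounds pinned at 5 concentrations, 24 h; CCCP control. Fixed with nuclear dye, primary antibodies 12 h at 10 degrees C, secondary plus cell stain; laser-scanning cytometer read.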
TRPML1 inh: qHTS for Inhibitors of the Human Mucolipin Transient Receptor Potential 1 (TRPML1) | Mucolipin-1 (Homo sapiens), Q9GZU1 | activity change, negative = inhibition, % (no concentration beside the values) | actives 0.02% (n = 390,000) | AID 624415, 2012 | TRPML1-inducible cells, Ca2+ dye fluorescence, FDSS; active compounds read low; inhibition of EC80 agonist-evoked calcium signal; in the data active means activity change below about -50%; inconclusive means about -30% to -50%; inactive means above about -30%;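 further: stimulus is agonist 54-4 at its EC80 concentration; on the % scale 0 is the no-effect control and ±100 the full control effect; compound concentration not given in the record; the text of the record puts the active cut at -80%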
Target sequence (Q9GZU1 whole entry, looked up): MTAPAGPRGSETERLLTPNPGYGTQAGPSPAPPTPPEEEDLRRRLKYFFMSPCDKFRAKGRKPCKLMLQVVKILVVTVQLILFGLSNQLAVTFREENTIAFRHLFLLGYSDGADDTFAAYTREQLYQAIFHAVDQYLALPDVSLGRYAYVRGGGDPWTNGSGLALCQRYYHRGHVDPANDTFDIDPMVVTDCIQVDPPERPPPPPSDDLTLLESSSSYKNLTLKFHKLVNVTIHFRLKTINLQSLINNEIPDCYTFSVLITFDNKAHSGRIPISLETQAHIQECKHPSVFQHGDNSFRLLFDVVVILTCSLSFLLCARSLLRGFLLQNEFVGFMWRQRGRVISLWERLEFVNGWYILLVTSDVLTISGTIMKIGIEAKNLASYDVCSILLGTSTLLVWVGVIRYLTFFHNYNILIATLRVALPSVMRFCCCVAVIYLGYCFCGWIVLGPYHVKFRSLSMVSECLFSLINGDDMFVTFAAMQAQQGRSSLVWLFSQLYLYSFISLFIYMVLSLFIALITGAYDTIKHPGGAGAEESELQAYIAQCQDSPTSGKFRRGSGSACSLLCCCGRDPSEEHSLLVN
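Tet-induced TRPML1-DL cells loaded with Ca8 no-wash calcium dye were read kinetically on FDSS. Compound addition was followed by EC80 agonist 54-4 (4 uM final); inhibition was read over 110 s.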
TRPML1 agonist: qHTS for Agonists of the Human Mucolipin Transient Receptor Potential 1 (TRPML1); Mucolipin-1 (Homo sapiens), Q9GZU1; TRPML1-expressing cells, Ca2+ dye fluorescence, FDSS; host cell line not named in the record; reference of the full effect not given here; activation, % (test concentration not listed); actives 0.12% (n = 410,000); AID 624414, 2012; in the data active = activation above about 50%; inconclusive = about 30% to 50%; inactive = below about 30%; further: 0% is about no effect; the text of the record puts the active cut at 80%
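Agonist activity was taken from a 110 s kinetic Ca2+ dye read on the FDSS after pinning compounds onto TRPML1-DL cells. The cells were seeded at 1,500/well with Tet inducer, incubated about 16 h, then dye-loaded at room temperature.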
An asterisk follows results filed as active; u = inconclusive; x = no result given; & = joins results of further samples; [ ] = dose if it differs, or a comment.

1) CC(=O)OCc1cnc(C)c2oc(=O)c(C(=O)Nc3cccc(F)c3)cc12
2) O=C(Cc1cn2ccsc2n1)Nc1ccccn1
3) CCc1ccc(NC(=O)C2CCCN2S(=O)(=O)c2ccc3c(c2)CCCC(=O)N3)cc1 (stereo unspecified)
4) O=[N+]([O-])c1cccc(/C=C/c2ccccn2)c1
5) Cc1cc2ccccc2n2c(SCC(=O)NCc3cccs3)nnc12
6) CCCNS(=O)(=O)c1ccc(CCC(=O)N2CCCC2)cc1
7) O=C1CSC2(C(=O)N(Cc3cccc(F)c3)c3ccccc32)N1c1cccc(C(F)(F)F)c1 (stereo unspecified)
8) C=CCNC(=O)c1cnc2n(c1=O)CCS2
Assay by compound	1	2	3	4	5	6	7	8
Six1-Eya2 inh	x	1	x	-3	u	0	x	6
D2 potentiator	x	-1	x	-9	1	3	x	-8
D2 ag	x	-2.6	x	2.5	-1.1	0.9	x	-4.4
PINK1 expr mod	0.0%	-0.7%	-0.4%	-2.3%	x	0.7%	-1.8%	3.1%
TRPML1 inh	-5	-1	7	35	11	1	14	-7
TRPML1 agonist	1.6	-0.7	-0.2	2.4	1.0	-0.8	1.8	0.0

9) Cc1ccc(S(=O)(=O)CCC(=O)Nc2nc3c(s2)CCCC3)cc1
10) CCCCN1C=C(C(=O)OC)C(c2ccccc2C(F)(F)F)C(C(=O)OC)=C1
11) CC1CCN(c2oc(-c3ccco3)nc2S(=O)(=O)c2ccccc2)CC1
12) O=c1c2ccccc2oc2ccc(NCCCN3CCOCC3)cc12
13) CCCCn1c(SCC(=O)N2CCN(c3ccccc3)CC2)nc2ccsc2c1=O
14) COc1ccc(C(c2nnnn2Cc2ccccc2)N2CCN(c3nc4ccccc4s3)CC2)cc1 (stereo unspecified)
15) O=c1ccc(Oc2nc(N3CCCCC3)nc(N3CCCCC3)n2)n[nH]1
16) COc1cc(C(=O)N/N=C/c2sccc2C)cc(OC)c1OC
Assay by compound	9	10	11	12	13	14	15	16
Six1-Eya2 inh	-1	6	-17	-14	-8	0	-1	-12
D2 potentiator	-17	-9	-3	-22	7	0	1	-15
D2 ag	-1.8	-1.2	0.2	-5.9	6.7	-1.9	-3.0	-0.7
PINK1 expr mod	-1.3%	3.1%	-0.3%	1.1%	1.9%[38.3 µM]	4.3%	6.2%	8.1%
TRPML1 inh	-7	20	18	-5	8	-2	29	-6
TRPML1 agonist	-0.4	1.0	0.7	2.5	2.2	0.9	-0.7	-0.3

Full records, looked up by structure. Values in the order: Six1-Eya2 inh | D2 potentiator | D2 ag | PINK1 expr mod | TRPML1 inh | TRPML1 agonist
`CC(=O)OCc1cnc(C)c2oc(=O)c(C(=O)Nc3cccc(F)c3)cc12` reads x | x | x | 0.0% | -5 | 1.6
`CCCCn1c(SCC(=O)N2CCN(c3ccccc3)CC2)nc2ccsc2c1=O` reads -8 | 7 | 6.7 | 1.9%[38.3 µM] | 8 | 2.2

More entries follow:
17) CCS(=O)(=O)c1ccc(O)c(Nc2cc(C)nc(SC)n2)c1
18) COc1cccc(/C=N/Nc2nccnc2Cl)c1O
19) COc1cc(NC(C)CCc2ccccc2)cc(OC)c1OC (stereo unspecified)
20) CCNC(=O)C1(C)CCCN(C(=O)c2ccc(F)c(C)c2)C1 (stereo unspecified)
21) Nc1nc2c(ccc3ccccc32)s1
22) N#C/C=C1/NC(=O)c2ccccc2S1
23) COc1ccc(-n2nnnc2-c2nc3ccccc3s2)cc1
24) CC(=O)NCCC(=O)Nc1cc(S(=O)(=O)N2CCOCC2)ccc1Oc1ccc(F)cc1
Assay by compound	17	18	19	20	21	22	23	24
Six1-Eya2 inh	x	-79*	-21	1	-3	-17	8	8
D2 potentiator	x	-13	0	3	-20	-20	-13	1
D2 ag	x	-7.4	11	3.5	-1.6	-3.3	0.5	-0.2
PINK1 expr mod	-1.0%	-1.7%	2.5%	0.3%	0.4%	-0.3%	8.6%	4.6%
TRPML1 inh	-9	-7	18	x	3	0	2	-15
TRPML1 agonist	-0.4	0.4	0.6	-0.6	-0.4	3.6	1.4	-0.3

25) CCOc1ccc2nc(NC(NC(C)=O)(C(=O)OC)C(F)(F)F)sc2c1 (stereo unspecified)
26) CS(=O)(=O)c1ccc(Cl)c(NC(=O)CSc2nc3ccccc3c(=O)n2CCCN2CCOCC2)c1
27) O=[N+]([O-])c1ccc2c(c1)C(N1CCOCC1)/C(=C/C1(O)CCCCC1)O2 (stereo unspecified)
28) COc1ccc(CNC(=O)CSc2nnc3c(Cl)cc(C(F)(F)F)cn23)cc1OC
29) COc1ccc(-c2cc(OC(=O)c3cccc(Cl)c3)c3c(C)oc(C)c3c(=O)c2)cc1OC
30) COc1ccc(S(=O)(=O)NCCCCOc2ccc(Cl)cc2)cc1
31) Cc1cc(N2CCN(C)CC2)nc2ccc(NC(=O)CCC(=O)NCCCOC(C)C)cc12
32) COc1ccc(-c2nnc(SCC(=O)NC3CCCC3)nc2-c2ccc(OC)c(OC)c2)cc1OC
Assay by compound	25	26	27	28	29	30	31	32
Six1-Eya2 inh	-1	8	-8	4	x	-4	3	x
D2 potentiator	-6	-14	-2	-5	x	-2	-9	x
D2 ag	1.3	-0.3	0.0	-1.8	x	6.9	-4.0	x
PINK1 expr mod	u	2.0%	-0.1%	0.0%	1.4%	-3.3%	3.2%	0.6%
TRPML1 inh	-10	-12	10	-20	9	69	-12	-3
TRPML1 agonist	1.9	0.1	-0.4	-0.1	0.4	4.8	1.5	1.4

33) CN(C)c1ccc(P(=O)(OC2CCCCC2)C(O)c2ccccn2)cc1 (stereo unspecified)
34) COc1cccc(C=Nc2ccc(N3CCOCC3)cc2)c1O
35) CCOC(=O)C1(C(F)(F)F)N=C(c2cccnc2)OC(N2CCCCC2)=N1 (stereo unspecified)
36) C/C(Nc1cccc(F)c1)=C(/C#N)C(N)=O
37) COc1ccc(CCSc2nnc(C3CCCCC3)n2N)cc1
38) C=CCNC(=O)C(=O)NCCOc1ccccc1Cl
39) CC1=C(C(=O)N2CCOCC2)C(c2c(C)cc(C)cc2C)NC(=S)N1 (stereo unspecified)
40) COCCNC(=O)c1sc(=O)n(Cc2ccc(SC)cc2)c1C
Assay by compound	33	34	35	36	37	38	39	40
Six1-Eya2 inh	-16	-2	2	2	8	-1	7	1
D2 potentiator	-9	4	8	2	-13	1	-5	-1
D2 ag	-3.5	3.5	-0.6	0.7	3.1	-1.2	-2.0	6.3
PINK1 expr mod	-0.2%	-0.3%	1.3%	x	-0.7%	13%	4.8%	-1.0%
TRPML1 inh	1	x	11	15	10	4	11	x
TRPML1 agonist	0.8	x	0.1	0.1	-0.5	0.0	0.2	-0.4

6 compounds out of the list, arranged by molecular weight, highest first.
24) CC(=O)NCCC(=O)Nc1cc(S(=O)(=O)N2CCOCC2)ccc1Oc1ccc(F)cc1
31) Cc1cc(N2CCN(C)CC2)nc2ccc(NC(=O)CCC(=O)NCCCOC(C)C)cc12
9) Cc1ccc(S(=O)(=O)CCC(=O)Nc2nc3c(s2)CCCC3)cc1
39) CC1=C(C(=O)N2CCOCC2)C(c2c(C)cc(C)cc2C)NC(=S)N1 (stereo unspecified)
17) CCS(=O)(=O)c1ccc(O)c(Nc2cc(C)nc(SC)n2)c1
20) CCNC(=O)C1(C)CCCN(C(=O)c2ccc(F)c(C)c2)C1 (stereo unspecified)
Assay by compound	24	31	9	39	17	20
Six1-Eya2 inh	8	3	-1	7	x	1
D2 potentiator	1	-9	-17	-5	x	3
D2 ag	-0.2	-4.0	-1.8	-2.0	x	3.5
PINK1 expr mod	4.6%	3.2%	-1.3%	4.8%	-1.0%	0.3%
TRPML1 inh	-15	-12	-7	11	-9	x
TRPML1 agonist	-0.3	1.5	-0.4	0.2	-0.4	-0.6

Next part.
41) Cc1cccn2c(=O)c(C=O)c(Sc3ncccn3)nc12
42) Cc1cc(N/N=C/c2cccc([N+](=O)[O-])c2)nc(-n2nc(C)cc2C)n1
43) Cc1nn(-c2ccccc2)c(C)c1C(=O)N1CCN(S(=O)(=O)c2ccccc2)CC1
44) C=CCN(Cc1cccc(OC)c1OC)C(=O)Oc1ccccc1
45) O=C(CN(CCc1ccccc1)S(=O)(=O)c1ccc(Br)cc1)N/N=C/c1ccc2c(c1)OCO2
46) O=c1ccc2c(-c3ccccc3S(=O)(=O)O)c3ccc(O)c(O)c3oc-2c1O
47) Cc1ccc(NC(=O)CSc2nc3ccccc3c(=O)n2CC2CCCO2)cc1 (stereo unspecified)
48) CCc1nn2c(=O)cc(COC(=O)c3cccc(NC(=O)c4ccccc4Cl)c3)nc2s1
Assay by compound	41	42	43	44	45	46	47	48
Six1-Eya2 inh	-6	7	4	9	14	-87*	8	x
D2 potentiator	-8	6	-2	1	3	-14	-1	x
D2 ag	-8.1	-2.4	0.8	6.5	-3.5	-10.0	-2.3	x
PINK1 expr mod	0.6%	11%	1.0%	0.4%	11%	-1.1%	0.6%	3.9%
TRPML1 inh	5	-3	-7	-16	16	2	-1	15
TRPML1 agonist	-0.5	-0.3	1.2	-0.3	0.3	-0.3	-0.2	0.7

49) COc1cc(/C=N/N=C(\N)c2nonc2N)cc(OC)c1OC
50) Cc1csc(SCC(=O)Nc2oc(C)c3c(C)n[nH]c(=O)c23)n1
51) O=C(Nc1cc(S(=O)(=O)N2CCOCC2)ccc1N1CCCC1)c1cc(=O)[nH]c2ccccc12
52) CCCc1c(C(=O)N/N=C(\C)CCc2ccc(OC)cc2)nnn1-c1nonc1N
53) Cc1ccc(/C=N/NC(=O)CCSc2ccccc2)cc1
54) COc1ccc(C2CC(c3ccc(C)cc3)Nc3nc(N)nn32)cc1 (stereo unspecified)
55) C(=N\N(c1ccccc1)c1ccccc1)/c1ccc(N2CCOCC2)s1
56) CCSc1ncc(Cl)c(C(=O)Nc2sc3c(c2C(=O)NC)CCCC3)n1
Assay by compound	49	50	51	52	53	54	55	56
Six1-Eya2 inh	-12	-7	2	-3	-3	-5	-20	x
D2 potentiator	0	-22	-16	6	-6	-9	-16	x
D2 ag	0.9	-5.5	-5.6	-0.1	2.2	-6.8	-2.4	x
PINK1 expr mod	-2.2%	1.7%	-1.4%	0.9%	3.8%	-0.4%	0.6%	0.7%&-1.0%
TRPML1 inh	9	3	22	-4	16	-15	-9	16
TRPML1 agonist	-0.2	-0.2	-0.3	-0.4	1.2	1.0	0.6	0.0&-0.3

Screens: PubChem BioAssay, National Center for Advancing Translational Sciences (NCATS)

Compounds were not picked by outcome, and some 1% of all compounds hit somewhere here.
